CHRM4 antagonist: CHRM4 antagonism in calcium assay; inhibition, % at 3 µM; CHO-hM4 cells, ACh EC80, Fluo-8 calcium fluorescence; hit rate 0.73% among 360,000;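 active = inhibition above its plate's cutoff, the mean inhibition of sample wells plus 3 SD, cut at about 27% in these data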;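 note: 0% = acetylcholine EC80 with DMSO and 100% = DMSO without agonist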
Target sequence (P08173 whole entry, looked up): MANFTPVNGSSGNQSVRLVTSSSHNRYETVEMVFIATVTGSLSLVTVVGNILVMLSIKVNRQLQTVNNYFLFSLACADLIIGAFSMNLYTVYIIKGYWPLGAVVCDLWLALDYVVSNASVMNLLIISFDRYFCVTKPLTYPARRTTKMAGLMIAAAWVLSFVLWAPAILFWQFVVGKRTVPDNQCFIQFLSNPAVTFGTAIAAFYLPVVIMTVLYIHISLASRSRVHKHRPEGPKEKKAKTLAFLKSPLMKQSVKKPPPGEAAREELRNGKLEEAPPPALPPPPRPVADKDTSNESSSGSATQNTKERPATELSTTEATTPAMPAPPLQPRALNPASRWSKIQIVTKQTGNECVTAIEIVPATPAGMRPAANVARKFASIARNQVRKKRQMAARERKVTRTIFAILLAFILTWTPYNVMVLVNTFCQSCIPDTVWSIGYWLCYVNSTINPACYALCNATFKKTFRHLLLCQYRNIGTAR
CHO parental Ca: counter-screen: ATP calcium response change in parental CHO cells. parental CHO-K1, ATP-induced calcium, Fluo-8 fluorescence. inhibition, % at 5.6 µM. hit rate 0.63% among 330,000. AID 463079;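 active = inhibition above that plate's mean sample inhibition plus 3 SD, cut at about 26% in these data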;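 note: 0% = ATP-challenged DMSO wells and 100% = DMSO wells without ATP; some compounds past the cut are filed as inactive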
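Material: parental CHO cells / Compound: single nominal dose of 5.6 µM per compound / Signal: Fluo-8 fluorescence / Replicates: singlicate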
OXTR potentiator: potentiates the human oxytocin receptor response | P30559 | CHO-OTR cells, Fluo-8 calcium fluorescence, potentiator mode; 0% = oxytocin EC15, 100% = EC100 | activation, % at 3 µM | hit rate 0.061% among 320,000;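 active = activation above that plate's cutoff, the mean activation of tested compounds plus 3 SD, cut at about 6.6% in these data, passing the limit was not always enough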;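 note: 100% uses oxytocin at 75 nM as the full agonist control; some results filed as inactive read as strong as hits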
Target sequence (P30559 whole entry, looked up): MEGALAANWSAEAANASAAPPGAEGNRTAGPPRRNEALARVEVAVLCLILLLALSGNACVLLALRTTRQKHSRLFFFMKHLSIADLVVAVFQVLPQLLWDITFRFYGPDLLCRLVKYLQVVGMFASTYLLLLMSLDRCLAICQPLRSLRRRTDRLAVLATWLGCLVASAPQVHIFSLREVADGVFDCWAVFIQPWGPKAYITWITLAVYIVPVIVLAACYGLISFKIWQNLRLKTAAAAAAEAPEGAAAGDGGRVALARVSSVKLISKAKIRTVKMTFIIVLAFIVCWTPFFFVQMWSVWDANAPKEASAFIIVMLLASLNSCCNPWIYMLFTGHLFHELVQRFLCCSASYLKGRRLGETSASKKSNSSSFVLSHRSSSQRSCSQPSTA
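System: human OTR in CHO cells / Also added: sub-maximal oxytocin, roughly EC15 / Control set: EC15 oxytocin low, 75 nM oxytocin high / Schedule: 6 min compound pre-incubation at room temperature, 100 s kinetic read / Compound: single-point 3.0 µM / Replication: singlicate / Technique: Fluo-8 calcium dye fluorescence / Read-out basis: % activation of max/min ratio relative to oxytocin controls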
Active calls of the source: *; · = not tested or not shown; & = joins results of further samples; ! = a repeat was not active. These rows are one share of the data; the hit share may differ from the screen's.

A first look (two entries):
SMILES	CHRM4 antagonist	CHO parental Ca	OXTR potentiator
Nn1nnc2ccccc21	0.2	-9.5	-3.0
CC1(C)S[C@@H]2[C@H](NC(=O)Cc3ccccc3)C(=O)N2[C@H]1C(=O)O	2.4&-8.8	4.2&6.4	-2.6&-6.0

The listing, from the start:
SMILES	CHRM4 antagonist	CHO parental Ca	OXTR potentiator
Nn1nnc2ccccc21	0.2	-9.5	-3.0
CC1(C)S[C@@H]2[C@H](NC(=O)Cc3ccccc3)C(=O)N2[C@H]1C(=O)O	2.4&-8.8	4.2&6.4	-2.6&-6.0
COc1ccc2c(c1OC)C(=O)O[C@@H]2[C@H]1c2c(cc3c(c2OC)OCO3)CCN1C	-4.1	-12.0	-7.2
CC(C)(Oc1ccc(CCNC(=O)c2ccc(Cl)cc2)cc1)C(=O)O	-6.5	-11.0	-0.2
CC1=C(/C=C/C(C)=C/C=C/C(C)=C\C(=O)O)C(C)(C)CCC1	-6.0	-6.8	-8.7
CO/N=C(\C(=O)N[C@@H]1C(=O)N2C(C(=O)O)=C(COC(C)=O)CS[C@H]12)c1csc(N)n1 (stereo in doubt)	82.7*!	-0.8&-2.0&-6.6	-0.5&0.8&-0.9
Cc1c(N(C)CS(=O)(=O)O)c(=O)n(-c2ccccc2)n1C	-1.5	-0.9	-3.6
CC/C(=C(\c1ccccc1)c1ccc(OCCN(C)C)cc1)c1ccccc1	3.2&-4.2	-4.2&-9.4	-8.0&-2.9
C[C@@H]1C[C@H]2[C@@H]3CCC4=CC(=O)C=C[C@]4(C)[C@@]3(F)[C@@H](O)C[C@]2(C)[C@H]1C(=O)CO	-6.1	-16.5	-9.7
O=c1[nH]c(=O)n([C@H]2C[C@H](O)[C@@H](CO)O2)cc1F	-6.3	-7.3	-1.7

(list continues)
SMILES	CHRM4 antagonist	CHO parental Ca	OXTR potentiator
CC(C)NCC(O)COc1cccc2[nH]ccc12 (stereo not given)	-22.8	-11.0	0.4
CCCC1CC(C(=O)NC(C(C)Cl)C2OC(SC)C(O)C(O)C2O)N(C)C1 (stereo not given)	6.5	-8.9	-6.0
CCOC(=O)[C@H](CCc1ccccc1)N[C@@H](C)C(=O)N1CCC[C@H]1C(=O)O	-9.0&-14.5	-10.9&-6.7	1.6&-12.4
Cc1ccnc(NS(=O)(=O)c2ccc(N)cc2)n1	-1.1	-1.5	-3.3
CNC(=O)Oc1ccc2c(c1)[C@]1(C)CCN(C)[C@@H]1N2C	-6.7&-5.6	-3.8&-5.2	-8.8&2.4
Nc1nc(=S)c2[nH]cnc2[nH]1	1.6	-8.4	-1.2
NC(=O)N1c2ccccc2CC(=O)c2ccccc21	-0.5	-13.2	-3.7
Cc1[nH]cnc1CN1CCc2c(c3ccccc3n2C)C1=O	0.6	-9.7	-7.4
CN(CCOc1ccc(CC2SC(=O)NC2=O)cc1)c1ccccn1 (stereo not given)	10.3&-5.0	-7.1&-3.7	5.4&-8.8
C[C@H]1C[C@H]2[C@@H]3CCC4=CC(=O)C=C[C@]4(C)[C@@]3(F)[C@@H](O)C[C@]2(C)[C@@]1(O)C(=O)CO	1.9	-7.0	-14.2

Sorted by molecular weight (lowest first): part of the list above.
SMILES	CHRM4 antagonist	CHO parental Ca	OXTR potentiator
Nn1nnc2ccccc21	0.2	-9.5	-3.0
Nc1nc(=S)c2[nH]cnc2[nH]1	1.6	-8.4	-1.2
O=c1[nH]c(=O)n([C@H]2C[C@H](O)[C@@H](CO)O2)cc1F	-6.3	-7.3	-1.7
CC(C)NCC(O)COc1cccc2[nH]ccc12 (stereo not given)	-22.8	-11.0	0.4
NC(=O)N1c2ccccc2CC(=O)c2ccccc21	-0.5	-13.2	-3.7
Cc1ccnc(NS(=O)(=O)c2ccc(N)cc2)n1	-1.1	-1.5	-3.3
CNC(=O)Oc1ccc2c(c1)[C@]1(C)CCN(C)[C@@H]1N2C	-6.7&-5.6	-3.8&-5.2	-8.8&2.4
CC1=C(/C=C/C(C)=C/C=C/C(C)=C\C(=O)O)C(C)(C)CCC1	-6.0	-6.8	-8.7
CC1(C)S[C@@H]2[C@H](NC(=O)Cc3ccccc3)C(=O)N2[C@H]1C(=O)O	2.4&-8.8	4.2&6.4	-2.6&-6.0
CN(CCOc1ccc(CC2SC(=O)NC2=O)cc1)c1ccccn1 (stereo not given)	10.3&-5.0	-7.1&-3.7	5.4&-8.8
CC(C)(Oc1ccc(CCNC(=O)c2ccc(Cl)cc2)cc1)C(=O)O	-6.5	-11.0	-0.2
CC/C(=C(\c1ccccc1)c1ccc(OCCN(C)C)cc1)c1ccccc1	3.2&-4.2	-4.2&-9.4	-8.0&-2.9
C[C@@H]1C[C@H]2[C@@H]3CCC4=CC(=O)C=C[C@]4(C)[C@@]3(F)[C@@H](O)C[C@]2(C)[C@H]1C(=O)CO	-6.1	-16.5	-9.7
C[C@H]1C[C@H]2[C@@H]3CCC4=CC(=O)C=C[C@]4(C)[C@@]3(F)[C@@H](O)C[C@]2(C)[C@@]1(O)C(=O)CO	1.9	-7.0	-14.2
COc1ccc2c(c1OC)C(=O)O[C@@H]2[C@H]1c2c(cc3c(c2OC)OCO3)CCN1C	-4.1	-12.0	-7.2
CO/N=C(\C(=O)N[C@@H]1C(=O)N2C(C(=O)O)=C(COC(C)=O)CS[C@H]12)c1csc(N)n1 (stereo in doubt)	82.7*!	-0.8&-2.0&-6.6	-0.5&0.8&-0.9

(more compounds)
SMILES	CHRM4 antagonist	CHO parental Ca	OXTR potentiator
CN(C/C=C/C#CC(C)(C)C)Cc1cccc2ccccc12	-9.1	-31.1	-5.4
CCOC(=O)C1=C(C)NC(C)=C(C(=O)OC)C1c1cccc(Cl)c1Cl (stereo not given)	1.1	3.6	-8.3
C[C@H]1C[C@@H]2[C@H]([C@@H](O)C[C@@]3(C)[C@H]2CC[C@]3(O)C(=O)CO)[C@@]2(C)C=CC(=O)C=C12	-16.3	-11.1	4.0
CCN(CCCc1ccccc1)CCCc1ccccc1	89.4*	-18.0	-6.2
CCN(CC)CCOC(=O)C1(C2CCCCC2)CCCCC1	98.5*	-7.3	0.8
COCCc1ccc(OCC(O)CNC(C)C)cc1 (stereo not given)	-13.5&8.6&-3.1	-7.8&-9.5&-3.5	-1.2&-3.3&-3.9
CS(=O)(=O)c1ccc([C@@H](O)[C@@H](CO)NC(=O)C(Cl)Cl)cc1	6.8	-8.1	-4.1
CC(C)NC[C@@H](O)COc1ccc(CC(N)=O)cc1	-8.2	12.3	0.8
C[C@H]1O[C@@H](n2cc(F)c(=O)[nH]c2=O)[C@H](O)[C@@H]1O	4.7	-2.6	0.7
CNCC[C@H](Oc1ccc(C(F)(F)F)cc1)c1ccccc1	0.4	0.9	-9.1

The listing continues.
Below each SMILES – CHRM4 antagonist	CHO parental Ca	OXTR potentiator
O=C(O)c1cn(-c2ccc(F)cc2)c2cc(N3CCNCC3)c(F)cc2c1=O
  1.8	·	·
CCCC1O[C@@H]2C[C@H]3[C@@H]4CCC5=CC(=O)C=C[C@]5(C)[C@H]4[C@@H](O)C[C@]3(C)[C@]2(C(=O)CO)O1 (stereo not given in full)
  8.7	-15.0	-2.8
CC1(C)O[C@@H]2C[C@H]3[C@@H]4C[C@H](F)C5=CC(=O)C=C[C@]5(C)[C@H]4[C@@H](O)C[C@]3(C)[C@]2(C(=O)CO)O1
  -8.2	-3.4	-7.5
CC(=O)[C@@]1(O)CC[C@H]2[C@@H]3C[C@H](C)C4=CC(=O)C=C[C@]4(C)[C@@]3(F)[C@@H](O)C[C@@]21C
  0.6	-6.7	-11.3
CC(=O)Nc1nnc(S(N)(=O)=O)s1
  -10.4	-2.7	3.5
CC12CCC3c4ccc(O)cc4CCC3C1CC(O)C2O (stereo not given)
  -7.8	-7.3	-13.2
CC[C@H](CO)NCCN[C@H](CC)CO
  -1.9	-0.5	-4.8
CCOC(=O)C(C)(C)Oc1ccc(Cl)cc1
  -10.3	-9.1	-7.5
CCC(C(=O)OCCOCCN(CC)CC)c1ccccc1 (stereo not given)
  -4.5	-13.4	-4.4
CCC(C)C(N)C1=NC(C(=O)N[C@@H](CC(C)C)C(=O)N[C@H](CCC(=O)O)C(=O)N[C@H](C(=O)N[C@H]2CCCCNC(=O)[C@H](CC(N)=O)NC(=O)[C@@H](CC(=O)O)NC(=O)[C@H](Cc3cnc[nH]3)NC(=O)[C@@H](Cc3ccccc3)NC(=O)[C@H]([C@@H](C)CC)NC(=O)[C@@H](CCCN)NC2=O)[C@@H](C)CC)CS1 (stereo not given in full)
  6.5	·	·
Oc1c(I)cc(I)c2cccnc12
  4.1	9.7	-4.3
CCCCc1oc2ccccc2c1C(=O)c1cc(I)c(OCCN(CC)CC)c(I)c1
  3.7	-19.4	-0.6
CNCCc1ccccn1
  -11.8	2.0	-0.3
CCC1OC(=O)C(C)C(OC2C[C@@](C)(OC)C(O)C(C)O2)C(C)C(O[C@@H]2OC(C)CC(N(C)C)C2O)[C@](C)(O)CC(C)C(=NOCOCCOC)C(C)C(O)[C@]1(C)O (stereo not given in full)
  0.0	-21.7	-5.3
CCC(CO)NCCNC(CC)CO (stereo not given)
  -10.4	6.1	-6.5
Cn1cc[nH]c1=S
  -19.7	·	·
C=C1CC[C@H](O)C/C1=C/C=C1\CCC[C@]2(C)[C@@H]([C@H](C)/C=C/[C@H](C)C(C)C)CC[C@@H]12
  3.9	-14.2	-2.5
Cc1ccc(C(=O)c2ccc(CC(=O)O)n2C)cc1
  -2.6	-5.2	-4.7
CC(CCc1ccc(O)cc1)NCCc1ccc(O)c(O)c1 (stereo not given)
  -16.8	7.6	-9.2
COc1cccc2c1C(=O)c1c(O)c3c(c(O)c1C2=O)C[C@@](O)(C(C)=O)C[C@@H]3O[C@H]1C[C@H](N)[C@H](O)[C@H](C)O1
  10.3	·	·
C[C@]12CC[C@@H]3c4ccc(O)cc4CC[C@H]3[C@@H]1C[C@@H](O)[C@@H]2O
  0.6	2.3	-7.0
COC(=O)C1=C(C)NC(C)=C(C(=O)OCC(C)C)C1c1ccccc1[N+](=O)[O-] (stereo not given)
  2.1	-20.5	-4.9
O=C1CC2(CCCC2)CC(=O)N1CCCCN1CCN(c2ncccn2)CC1
  -13.4	-14.6	0.3
CC[C@]1(O)CC2CN(CCc3c([nH]c4ccccc34)[C@@](C(=O)OC)(c3cc4c(cc3OC)N(C=O)[C@H]3[C@@](O)(C(=O)OC)[C@H](OC(C)=O)[C@]5(CC)C=CCN6CC[C@]43[C@@H]65)C2)C1 (stereo not given in full)
  -9.9	-12.8	5.7
CC1=C(CC(=O)O)c2cc(F)ccc2/C1=C/c1ccc(S(C)=O)cc1 (stereo not given)
  2.9	-5.8	-3.3
CC(=O)[C@H]1[C@H](C#N)C[C@H]2[C@@H]3CC=C4C[C@@H](O)CC[C@]4(C)[C@H]3CC[C@@]21C
  -13.7	0.5	-9.0
CCCCN1CCCCC1C(=O)Nc1c(C)cccc1C (stereo not given)
  -29.4	-8.1	4.5
Cc1ccnc2c1NC(=O)c1cccnc1N2C1CC1
  -21.3	-4.0	5.1
O=C(O)Cc1ccc(-c2ccccc2)cc1
  -15.0	-9.1	2.5
Nc1nc(Cl)nc2c1ncn2C1CC(O)C(CO)O1 (stereo not given)
  -8.1	-0.2	-5.3
CC(C(=O)O)c1ccc(CC2CCCC2=O)cc1 (stereo not given)
  -11.1	1.2	-6.0
C#C[C@]1(O)CCC2C3CCC4=Cc5oncc5CC4(C)C3CCC21C (stereo not given in full)
  10.8	15.0	-17.7
